# AID504770 = E. coli YBA685 growth inhibition, screen for V. cholerae RctB inhibitors | E. coli YBA685 rctB-dependent plasmid, OD600 growth, 3 h; active compounds read low | z-score (concentration not given with the values) | actives 0.27% (n = 130,000) | AID 504770;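 active = z-score under -2 on both plates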;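 note: wells of about 30 µL received 100 nL stock; score is relative to mean and SD of the test wells; the first replicate is given; strong numbers were not always called active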
# Ba CapD inh = blocks the Bacillus anthracis CapD enzyme; actives 0.23% (n = 140,000); z-score (no concentration beside the values); purified CapD enzyme, fluorescence intensity read-out; active compounds read low; some hits fall short of the stated cut; AID 492967;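 active = z-score under -4 in either of two replicates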;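 note: stock transfer was 100 nL into about 40 µL; score is relative to mean and spread of the plate; one replicate is shown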
# An asterisk follows results filed as active; nt = not tested or not shown. These rows are one share of the data; the hit share may differ from the screen's.
SMILES,AID504770,Ba CapD inh
CCN(CC)C(=S)SCc1nc(N)nc(Nc2ccccc2)n1,-0.25,0.19
CCCCCCn1c(COc2ccccc2F)nnc1SCc1cc(=O)n2ccsc2n1,-0.3,nt
O=C(c1ccco1)N1CCN(C(c2coc3ccc(Cl)cc3c2=O)c2nnnn2C2CCCC2)CC1 (centres undefined),-0.25,nt
Cc1nc(SCC(=O)NC(C)(C#N)C(C)C)n(CC(C)C)c1C (centres undefined),2,nt
COc1ccccc1/C=N/NC(=O)c1ccc(=O)n(C)c1,-0.45,nt
CCCSc1nnc(Cn2c(=O)sc3ccccc32)n1-c1ccccc1,1.4,-0.22
Cc1cc(/N=C/C=C2\N(C)c3ccccc3C2(C)C)n(CCC#N)n1,-0.2,-4.4*
Fc1ccc(N2CCN(Cc3cccs3)CC2)cc1,-0.7,-0.08
C/C(=N\OC(=O)C(F)(F)F)c1cc(C(C)(C)C)cc2c1CCC2(C)C,nt,0.38
CC(=O)c1ccc(NC(=O)CSc2nnc(SCC(=O)Nc3ccc(C(C)=O)cc3)s2)cc1,nt,-0.08
NC(=O)CC1Nc2cccc3cccc(c23)NC1=O (centres undefined),-0.4,-1.1
O=C1NCCc2c1[nH]c1ccc([N+](=O)[O-])cc21,nt,-0.2
O=C1CCCC/C1=C/Nc1ccc(Cl)cn1,-0.5,nt
O=C1O/C(=C/C=C2/OC(=O)c3ccccc32)c2ccccc21,-0.1,-0.33
FC(F)(F)c1ccc(C=Nc2cc(Cl)cc(Cl)c2)cc1,-1,0.74
CCc1ccc(C2Nc3ccc4ncccc4c3C3=C2C(=O)CC(C)(C)C3)cc1 (centres undefined),nt,17
N/C(=N\OC(=O)c1ccc(Cl)cc1)c1ccc(-c2csnn2)cc1,nt,-0.18
C=CCNC(=S)Nc1ccc(C)cc1,-0.4,nt
CCCN(CCC)C(=O)COc1cc(=O)n(CC)c2ccccc12,-0.6,0.93
NC(=O)c1cccnc1OCC(F)(F)F,0.05,-0.26

# Whole records, looked up by structure:
# `O=C1CCCC/C1=C/Nc1ccc(Cl)cn1` is listed with AID504770: -0.5; Ba CapD inh: nt
# `Cc1nc(SCC(=O)NC(C)(C#N)C(C)C)n(CC(C)C)c1C` (centres undefined) is listed with AID504770: 2; Ba CapD inh: nt

# Remaining list, next part:
SMILES,AID504770,Ba CapD inh
Cc1ccc(S(C)(=O)=NC(=O)CSc2ccc(C(F)(F)F)cn2)cc1 (centres undefined),0.05,-0.11
C[C@]12C=CC(=O)C=C1CC[C@@H]1[C@@H]2C(=O)C[C@@]2(C)[C@H]1CC[C@]2(O)C(=O)CO,nt,-0.38
CSC1=C(C#N)C(=C(C#N)C#N)NC(c2ccccc2)=N1,0.75,-3
CCC(C)(C)NC(=O)Cn1c(-c2ccc(C)cc2)noc1=O,-0.8,nt
Cc1cc(C)c(C(=O)Cn2c(=O)oc3ccccc32)c(C)c1,-0.1,nt
CCc1cnc(/N=C/N(C)C)nc1-c1c(F)cccc1F,-0.4,28
CCN(CC)C(=O)c1c[nH]c2ccccc2c1=O,-0.4,-1.1
C=CCn1c2ccccc2c2nnc(SC(CC)C(=O)Nc3nnc(C(F)(F)F)s3)nc21 (centres undefined),-0.05,0.55
Cc1ccc(S(=O)(=O)N(CC(O)CN(CC(C)C)CC(C)C)c2cccc([N+](=O)[O-])c2)cc1 (centres undefined),nt,-0.12
COc1cc(-c2nc3ccccc3c(=O)n2NCc2ccccc2Br)cc(OC)c1OC,nt,0.96
Cc1cccc(SCC(O)(c2ccc(Cl)cc2)c2ccc(Cl)cc2)c1,nt,-0.02
C=CCCC(=O)NCc1cccs1,nt,-1.2
COc1ccccc1NC(=O)c1c(NC(=O)c2ccccc2)sc2c1CCCCC2,nt,3
COC(=O)C[N+]1(Cc2ccco2)CCCCC1,1.8,nt
O=C(c1cc(-c2ccc(F)cc2)no1)N1CCOCC1,-0.65,-0.21
O=C(Nc1ccn(Cc2c(F)cccc2Cl)n1)c1cc2ccccc2oc1=O,-0.5,-0.2
COC(=O)c1ccc(C=Nc2ccc(O)c(-c3nc4ccccc4o3)c2)cc1,0.05,nt
O=C(CSc1nc2ccccc2s1)NCCOc1ccc(Cl)cc1,nt,-0.15
COc1ccc(OCC(O)Cn2c(=N)n(Cc3ccccc3)c3ccccc32)cc1 (centres undefined),-1,0.23
Cc1cc(C)cc(Nc2cc(C)nc(-n3nc(C)cc3C)n2)c1,1.7,nt
CC(C)(C)C1CCC(OC(=O)CN2CCCCC2)CC1 (centres undefined),-0.55,-0.43
CN(C)C(=O)NC1CC(C)(C)N(O)C(C)(C)C1,0.8,0.18
CCOC(=O)C1=C(C)N=c2s/c(=C/c3ccc(OC)c(OC(C)=O)c3)c(=O)n2C1c1ccccc1Cl (centres undefined),nt,-0.69
COc1ccc(CN2CCSCC2)c(C)c1C,2.7,-0.49
O=C(c1cc(=O)oc2cc(OCc3ccccc3)ccc12)N1CCN(c2ccccn2)CC1,nt,0.095
N#Cc1ccc([N+](=O)[O-])s1,nt,-0.09
Cc1ccc2c(c1)N(C(=O)CN1C(=O)C3CCCCC3C1=O)C(C)(C)c1ssc(=S)c1-2 (centres undefined),nt,-1.7
CCc1cc2c(cc3c(=O)n(CCCC(=O)NC4CCCCC4)ncn32)s1,-0.35,-0.4
NC(=O)Cn1nc(C(=O)O)c2ccccc2c1=O,0.15,nt
CC1Cc2ccccc2N1C(=O)CC(=O)N1c2ccccc2CC1C (centres undefined),-0.55,-0.44
COCCCn1c(-c2cc3ccccc3o2)csc1=Nc1ccccc1F,-0.75,nt
NCC[C@H](O)C(=O)NC1CC(N)C(OC2OC(CN)C(O)C(O)C2O)C(O)C1OC1OC(CO)C(O)C(N)C1O (some centres undefined),nt,0.05
O=C(Nc1ccccc1)N1CCN(c2ccc(F)cc2)CC1,0.2,1.1
NC(=O)c1ccccc1NCC(=O)c1ccc(F)cc1,0.05,48
CCC(=O)Nc1ccc(-c2csc(-c3ccccc3)n2)cc1,-0.5,1.1
CSc1ccc(C(N)=O)s1,0.7,17
Cc1cc(C(=O)CSc2ncnc3sc4c(c23)CCCC4)c(C)n1Cc1ccco1,1.8,6
CN(C1CCCCC1)S(=O)(=O)c1ccc(C(=O)Nc2sccc2C#N)cc1,0.8,5.3
CC1CCCCN1c1ccc(N)cc1 (centres undefined),0.95,nt
CC(=O)Nc1ccc(NC(=O)c2ccc(I)cc2)cc1,-0.7,-0.1
CS(=O)(=O)N(c1cccc(C#N)c1)S(C)(=O)=O,-0.3,-0.24
Cc1ccc(-n2c3nc(=O)[nH]c(=O)c-3cc3c(Cl)cccc32)cc1C,nt,0.58
CC(N=CC1=C(O)CC(C)(C)CC1=O)c1ccccc1 (centres undefined),-0.4,0.18
CCCN(CCC)S(=O)(=O)c1ccc(C(=O)NNC(=O)OCCCCCc2ccccc2)cc1,nt,0.15
O=C(NCCc1ccccc1)c1cc(-c2ccc(Cl)cc2)cs1,nt,-0.075
COc1ccc(-c2nnc(-c3ccc(S(=O)(=O)c4ccccc4)cc3)o2)cc1OC,1.1,46
O=C(c1cccc(CN2CCN(c3nc(-c4ccccc4)ns3)CC2)c1)N1CCC(O)CC1,-0.85,0.05
Cc1ccc(Oc2ccccc2)c(NC(=O)c2ccccc2)c1,-0.2,0.49
Cc1cc(=O)[nH]c(SCc2cc(=O)n3nc(SCC(C)C)sc3n2)n1,-0.8,0.96
COc1ccc(N2CCN(C(=O)CSc3nc4ccc(OC)cc4[nH]3)CC2)cc1,nt,-0.88
O=C(CNC(=O)C12CC3CC(CC(C3)C1)C2)N1CCN(S(=O)(=O)c2ccc(Cl)cc2)CC1,-0.65,nt
O=S(=O)(NCc1ccccc1)c1ccc(S(=O)(=O)N2CCCCCC2)cc1,0.5,nt
O=C(N/N=C\c1ccc(Cl)cc1Cl)c1sccc1-n1cccc1,nt,-0.88
CC(C)(C)c1ccc(OCCn2c(=O)oc3ccccc32)cc1,-0.35,-0.02
O=C1CSC(c2cc3c(cc2[N+](=O)[O-])OCO3)N1c1cccc(C(F)(F)F)c1 (centres undefined),nt,1.6
CCCCc1ccc2nc(NC(=O)c3ccco3)sc2c1,1.6,3.9
CCCCCC1CC(CC(C)C(=O)Nc2nncs2)C(=O)O1 (centres undefined),1.7,nt
CSc1ccc(Cl)c(C(=O)OC(C)C(N)=O)c1 (centres undefined),0.5,nt
CCOC(=O)c1c(C)[nH]c(C(=O)O)c1C,-0.65,-0.23
O=C(CC1CC2CCC1C2)NCc1cccs1 (centres undefined),-0.65,0.12

# The list goes on:
SMILES,AID504770,Ba CapD inh
CCN(CC)S(=O)(=O)c1ccc(S(=O)(=O)Nc2cc(Cl)ccc2OC)cc1,-0.4,nt
Cc1n[nH]c(=O)c2c(NC(=O)COC(=O)/C=C/c3ccc4c(c3)OCO4)oc(C)c12,-0.8,nt
O=C(NC1CCCCC1)N1c2ccccc2CCc2ccccc21,0.05,-0.42
Oc1ccccc1CNC1CCCCC1,-1.1,0.28
Cc1oc2ncn(C)c(=O)c2c1C(=O)N1CCc2ccccc21,1,0.54
CCCN1CCC(N(C(=O)c2cccc(NC(=O)c3ccc(S(C)(=O)=O)cc3)c2)C2CC2)CC1,nt,-0.34
Cc1ccc(NC(=O)COC(=O)c2cccc(C(F)(F)F)c2)cc1C,-0.55,-1.2
CCCc1c(C)nc2cc(-c3sccc3-n3c(C)ccc3C)nn2c1C,nt,-0.71
O=C(c1c(Cl)nc2sccn12)N1CCN(c2cccc(Cl)c2)CC1,-0.45,nt
CCC(C)NC(=O)c1csc2c1CCCCC2 (centres undefined),0.5,0.32
CCN(CC)C(=O)C1C(=O)NC2(C)CC1c1ccccc1O2 (centres undefined),-1,-0.64
O=C(O)/C(=C\c1ccccc1)c1cccs1,-0.2,nt
COC(=O)c1cc(OC(=O)c2nc(-c3ccccc3)oc2C)cc(C(=O)OC)c1,-0.05,nt
Cc1ccc(NC(=O)Cn2cnc3sc(C(=O)N4CCN(Cc5ccccc5)CC4)c(C)c3c2=O)cc1Cl,nt,0.9
O=C(c1ccn(C(=O)c2ccc(Cl)cc2Cl)n1)N1CCCCC1,-0.6,0.41
COc1ccc(NC(=O)COC(=O)Cc2cccc(C(F)(F)F)c2)cc1,-0.45,-0.35
O=C(/C=C/c1ccc2c(c1)OCO2)NCc1ccccc1,-0.95,nt
Cc1nnc(Sc2nc3ccc(Cl)cc3s2)n1-c1ccc2c(c1)OCCO2,-0.05,0.68
CSc1ccccc1NC(=O)c1noc2c1CC(C(C)(C)C)CC2 (centres undefined),-0.55,-0.15
O=C(Nc1ccccc1)OCC(F)(F)F,0.5,-0.83
CS(=O)(=O)c1ccc2ccn(OCC(=O)N3CCc4ccccc43)c2c1,nt,0.32
OC(c1ccc(-n2ccnc2)cc1)c1ccc(-n2ccnc2)cc1,-0.65,0.035
Nc1ccc(Oc2ccc3c(c2)C(=O)N(c2ccccc2)C3=O)cc1,nt,0.06
COC(=O)c1nn(-c2ccccc2)c2oc(=O)cc(C)c12,-1.4,-0.24
COC(=O)c1cccc(COC(=O)CCc2nc3ccccc3[nH]c2=O)c1,-0.05,9.1
COC(=O)CN(c1cccc(C)c1)S(=O)(=O)c1ccccc1,-0.45,-1.3
COc1ccc(S(=O)(=O)N2CCCCC2)cc1-n1c(N)c(C#N)c2nc3ccccc3nc21,2.2,nt
Cc1nnc(SCC(=O)N(CC(C)C)C2CCS(=O)(=O)C2)s1 (centres undefined),0,nt
O=C(CN1C(=O)c2ccccc2C1=O)Nc1ccc(S(=O)(=O)NC2=NCCCCC2)cc1,1.4,nt
O=C1C2C3C=CC(C2C(=O)N1c1nccs1)C1C(=O)N(c2nccs2)C(=O)C31 (centres undefined),nt,0.05
CN1C(=O)c2ccccc2C1O (centres undefined),-1.6,nt
NC(N)=Nc1nc(-c2ccccc2)c2ccccc2n1,-1.5,-0.57
CCCS(=O)(=O)c1c(S(=O)(=O)CCC)c2c(C)cccn2c1C(=O)N/N=C/c1cc(O)cc(O)c1,nt,-0.41
Cc1cc(N2CCOCC2)nc([S+]2CCCC2)n1,0.1,nt
CCOc1cc(C(=O)Nc2c3c(nn2-c2ccc(OC)cc2)CSC3)cc(OCC)c1OCC,nt,0.005
COC(=O)N(c1ccc(SC)cc1)c1nc(C)cc(C)n1,nt,-0.34
C/C(=N\OC(=O)Nc1ccccc1)c1sc(-c2ccccc2)nc1C,nt,-0.58
O=C(Cc1cccc2ccccc12)Nc1ccc(-n2cnnn2)cc1,-0.1,nt
CCC(C(=O)N1CCCC1)n1c(C(=O)OC)cc2sccc21 (centres undefined),-0.2,-1.5
COc1cc(C2NC(=O)NC(C)=C2C(=O)OCCc2ccccc2)cc(Br)c1O (centres undefined),nt,0.11

# Continued, starting with the last 4 of the part before.
SMILES,AID504770,Ba CapD inh
C/C(=N\OC(=O)Nc1ccccc1)c1sc(-c2ccccc2)nc1C,nt,-0.58
O=C(Cc1cccc2ccccc12)Nc1ccc(-n2cnnn2)cc1,-0.1,nt
CCC(C(=O)N1CCCC1)n1c(C(=O)OC)cc2sccc21 (centres undefined),-0.2,-1.5
COc1cc(C2NC(=O)NC(C)=C2C(=O)OCCc2ccccc2)cc(Br)c1O (centres undefined),nt,0.11
CN(C)S(=O)(=O)Nc1ccc(OCc2ccccc2)cc1,-0.75,0.025
NC(=O)c1ccccc1CCc1ccccc1,-0.25,-0.63
CCCCC(=O)Nc1cc(OC)c(OC)cc1C(=O)O,-0.45,0.78
CCOC(=O)c1cc(OC(=O)c2ccc(Cl)nc2)cc(C(=O)OCC)c1,-0.15,nt
COc1ccccc1N1CCN(c2nc(C)nc3sc4c(c23)CCCC4)CC1,nt,-0.63
C(=N\n1c(-c2ccco2)csc1=NCCc1ccccc1)/c1ccco1,-0.9,nt
O=C1NC(c2ccc(Cl)cc2)=COc2ccccc21,-0.15,0.095
Cc1sc2nc3c4ccccc4c(NCCO)nn3c(=O)c2c1C,-0.25,2.3
